Compound activity (PubChem BioAssay)
HSD17B inh: qHTS Assay for Inhibitors of HSD17B4, hydroxysteroid (17-beta) dehydrogenase 4. recombinant HSD17B10, NADH fluorescence kinetic; many of its hits are not listed in these tables. Potency, µM (titrated, usually from 57.1 µM), for inactives: at the highest dose activity change, negative = inhibition, actives largely listed as inhibitors. 75,000 compounds, 7.6% hits; active means well fitted inhibition curve with a large enough effect; inconclusive means small, poorly fitted or top-dose-only effect; inactive means no such curve, though single readings can be large or run the other way;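 further: the protocol describes HADH2 (HSD17B10) and not the HSD17B4 of the title; nearly all actives have a fitted effect of over 70% in size; most hits overshoot -100% by far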
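20 nM HADH2, pH 9.0 Tris/Tween; cpd preinc 15 min RT; start w/ 1 mM NAD+ + 90 uM b-hydroxybutyryl-CoA; kinetic fluor ex360/em450 q30s x 4 min; delta last-first.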
* = called active by the depositor; i = inactive; ? = inconclusive; & = joins results of further samples; [ ] = another dose, or the depositor's remark. On the % scale 0 is the no-effect control and ±100 the full control effect; potency means the concentration at half of the fitted maximal effect. Not all compounds are listed; count on the stated rates, not on these rows.

SMILES	HSD17B inh
CCOC(=O)c1cccc(NC(=O)CSc2nnnn2C)c1	6%
CCOC(=O)N1CCN(C(=O)CSc2nnc(-c3cc(OC)cc(OC)c3)o2)CC1	7%
CC(=O)CC(=O)Nc1cccc2c1CCCC2	3%
CCOc1ccc(C(=O)Nc2c3c(nn2-c2ccc(F)cc2)CS(=O)C3)cc1 (centres undefined)	3%
CN1CCN(S(=O)(=O)c2ccc(Cc3ccc(S(=O)(=O)N4CCN(C)CC4)cc3)cc2)CC1	1%
CN1C(=O)C(O)(CC(=O)c2ccccc2O)c2cc(Br)ccc21 (centres undefined)	-1%
COc1cccc(CSCC(=O)O)c1	4%[11.4 µM]
Cc1ccc2nc(C)cc(OCC(=O)O)c2c1	0%
Nc1nc2sc3c(c2cc1C(=O)N1CCOCC1)CCCC3	25µM*
O=C(O)C1CCCN1c1ncnc2c1oc1ccccc12 (centres undefined)	3%
Cn1c(=O)cc(OCCCC(=O)N2CCN(c3ccccc3)CC2)c2ccccc21	0%
Cc1c(C(=O)NCc2ccccc2)oc2ccc(S(=O)(=O)N3CCCC3)cc12	-5%
CC(NC(=O)NC1CCCCC1)C(c1cccs1)N1CCN(C)CC1 (centres undefined)	1%
O=C(C1CCN(S(=O)(=O)c2cccc3cccnc23)CC1)N1CC=C(c2ccccc2)CC1	-9%
CCCC[C@@H]1C[C@H]1C(NC(=O)c1ccc(-c2ccccc2)cc1)c1ccc(-c2ccccc2)cc1 (some centres undefined)	8%
CS(=O)(=O)N(CC(N)=O)Cc1ccc(Cl)cc1	16%
COC(=O)c1c(C)[nH]c(C(=O)CN2CCOCC2)c1C	2%
c1ccc2[nH]c(CSc3ncnc4c3oc3ccccc34)nc2c1	32%[activator]
O=C(NCC(F)(F)F)Nc1ncccn1	8%
Cn1nnnc1SCC(=O)NC(C)(C)C	3%
Cc1nn(C)c(C)c1NC(=O)CSc1nc(Cc2ccccc2)nc2c1cnn2-c1ccccc1	-8%
O=C(CSc1nnnn1C1CCCCC1)N1CCCC1	3%
COc1ccc(-c2[nH]ncc2-c2cnc(C)s2)c(O)c1	-1%
CCC1(C)COC2(OC1)C(=O)Nc1ccccc12 (centres undefined)	7%
CCNC(=O)CCC(N)C(=O)O (centres undefined)	-10%

Structures shown so far containing an NH in an aromatic ring:
SMILES	HSD17B inh
COC(=O)c1c(C)[nH]c(C(=O)CN2CCOCC2)c1C	2%
c1ccc2[nH]c(CSc3ncnc4c3oc3ccccc34)nc2c1	32%[activator]
COc1ccc(-c2[nH]ncc2-c2cnc(C)s2)c(O)c1	-1%

Further compounds follow:
SMILES	HSD17B inh
CC1(C)C(O)C=C[C@@]2(C)C1CC(=O)O[C@@]1(C)C3=CC(=O)OC(c4ccoc4)[C@]3(C)CCC21 (some centres undefined)	33%[activator]
COc1ccc2c(C(=O)CN3CC(C)OC(C)C3)c[nH]c2c1 (centres undefined)	?
Cc1ccc(S(=O)(=O)N2CCCC(C(=O)NCCCN3CCCCC3C)C2)cc1 (centres undefined)	12%
CCc1c(C)sc(NC(=O)c2cnn3cccnc23)c1C#N	-6%
N#Cc1nn(-c2ccccc2)nc1N1CCCCC1	25µM*
O=C(NCCN1CCCCCC1)c1ccc(CS(=O)(=O)c2ccc(Br)cc2)o1	2%
O=C(O)CC(Cc1ccc(Br)cc1)C(=O)O (centres undefined)	3%
Cc1cccc(NC(=O)CN(C)S(=O)(=O)c2cccc3nsnc23)c1C	-4%
O=C(CSc1nc2ccccc2o1)c1ccc2c(c1)OCCO2	-3%
CC(C)NS(=O)(=O)c1ccc(OCC(=O)NCc2cccnc2)cc1	4%
CCCn1c(-c2ccc(F)cc2)cnc1SCC(=O)O	-15%
CC(=O)Nc1ccc(N/C=C/C(=O)c2ccc(C)o2)cc1	-11%
O=C(CSc1ncn[nH]1)Nc1ccccc1C(=O)O	1%
CC(C)CN(CC(C)C)c1nnc(N)s1	-17%
CN1CCN(c2ncnc3ccc(-c4ccccc4C#N)cc23)CC1	4%
CCCn1c(=O)c2ccccc2n2c(SCC(=O)c3cc(C)n(CC4CCCO4)c3C)nnc12 (centres undefined)	-2%
CCC(C)NC(=O)N[C@@H](Cc1ccccc1)C(=O)O (some centres undefined)	7%
O=c1cnc2cnc(Nc3ccccc3)nc2n1Cc1ccc(F)cc1	-8%
COc1ccc(C(=O)N2CCC3(CCCN(C(=O)Nc4cccc(F)c4)C3)CC2)cc1	-2%
Nc1nc(-c2nc3ccccc3[nH]2)cs1	-10%
COc1ccc(C2CC(=O)c3cnc(NC(=O)c4ccccc4OC)nc3C2)c(OC)c1 (centres undefined)	-16%
Cc1cccc(C2CC(c3ccc(F)cc3)Nc3nc(N)nn32)c1 (centres undefined)	3%
O=C(O)c1cccc(Cl)c1Cl	-1%
CCc1c(C)nc(SCC(=O)N2CCc3ccccc32)[nH]c1=O	11%
CC1(C)CC(Nc2ccc(Nc3ccccc3)cc2)CC(C)(C)N1	12%[11.4 µM]

Filtered by structure: those above with a furan ring, fused or not
SMILES	HSD17B inh
O=C(O)C1CCCN1c1ncnc2c1oc1ccccc12 (centres undefined)	3%
Cc1c(C(=O)NCc2ccccc2)oc2ccc(S(=O)(=O)N3CCCC3)cc12	-5%
c1ccc2[nH]c(CSc3ncnc4c3oc3ccccc34)nc2c1	32%[activator]
CC1(C)C(O)C=C[C@@]2(C)C1CC(=O)O[C@@]1(C)C3=CC(=O)OC(c4ccoc4)[C@]3(C)CCC21 (some centres undefined)	33%[activator]
O=C(NCCN1CCCCCC1)c1ccc(CS(=O)(=O)c2ccc(Br)cc2)o1	2%
CC(=O)Nc1ccc(N/C=C/C(=O)c2ccc(C)o2)cc1	-11%

Later entries.
SMILES	HSD17B inh
COc1ccccc1Oc1ccc(S(=O)(=O)Nc2cccnc2)cc1	5%
COCCNC(=O)CCCCCN1C(=O)CCC1=O	3%
Nc1nc(-c2ccc(Cl)cc2Cl)cn1N	-21%
Cc1c(C(=O)N2CCOCC2)sc2ncnc(N3CCc4ccccc4C3)c12	-4%
O=C(NCCCn1ccnc1)c1cc(-c2ccc3c(c2)OCO3)on1	4%
COc1ccc(N(CC(=O)N2CCN(C)CC2)S(C)(=O)=O)cc1OC	-14%
N[C@@]1(C(=O)O)CCC[C@@H]1C(=O)O	14%[11.4 µM]
Cc1ccc(OC2C(O)COC2/C=C/C#Cc2ccc(C(C)(C)C)cc2)cc1 (centres undefined)	-5%&6%[11.4 µM]
O=C1c2ccccc2C(O)(Cc2ccccc2)N1C1CCCCC1 (centres undefined)	-14%
CC(COc1ccccc1)N(CCCl)Cc1ccccc1 (centres undefined)	-2%&-19%
Cc1nc(N2CCN(C(=O)CCC(=O)O)CC2)c2c(C)c(C)sc2n1	-4%
CCc1nnc(NC(=O)CSc2nnc(COc3ccccc3)n2-c2ccc(C)cc2)s1	-1%
Cc1ccc(-c2nnc(SCc3ccccc3F)o2)cc1	-15%
COc1cccc(Oc2nnnn2-c2ccccc2)c1	3%
CCOC(=O)c1c(NC(=O)CSc2nnc(-c3cccnc3)n2Cc2ccco2)sc(C)c1C	-22%
CC(C)CN1CCCC2(CCN(C(=O)c3csnn3)CC2)C1	4%
COc1ccc(-n2cnnc2SC(C)c2nc3sc(C)c(C)c3c(=O)[nH]2)cc1 (centres undefined)	-27%
O=C(Nc1cccnc1)c1c(F)cccc1F	11%
COc1ccc(C(NC(N)=O)c2ccccc2)cc1 (centres undefined)	3%
C=CCn1c(Oc2cc(C)ccc2C)nc2c1c(=O)n(C)c(=O)n2C	?
CCN(CC)S(=O)(=O)c1cccc(C(=O)NC(C(=O)NC2=NCCS2)C(C)C)c1 (centres undefined)	2%
CCc1ccc(N(C(C)=O)C2C=CS(=O)(=O)C2)cc1 (centres undefined)	7%
COc1ccc(-c2nc3n(c(=O)c2C#N)CCCS3)cc1	20µM*
CCS(=O)(=O)N1CCCC(C(=O)NCCc2ccc(OC)c(OC)c2)C1 (centres undefined)	-5%
OC(COc1ccccc1Cl)CN1CCN(CC(O)COc2ccccc2Cl)CC1 (centres undefined)	-7%

Quoted at random: 6 entries already listed
SMILES	HSD17B inh
COc1ccc(C(NC(N)=O)c2ccccc2)cc1 (centres undefined)	3%
CC(C)CN1CCCC2(CCN(C(=O)c3csnn3)CC2)C1	4%
Cc1c(C(=O)N2CCOCC2)sc2ncnc(N3CCc4ccccc4C3)c12	-4%
CCc1ccc(N(C(C)=O)C2C=CS(=O)(=O)C2)cc1 (centres undefined)	7%
CCS(=O)(=O)N1CCCC(C(=O)NCCc2ccc(OC)c(OC)c2)C1 (centres undefined)	-5%
COc1ccc(N(CC(=O)N2CCN(C)CC2)S(C)(=O)=O)cc1OC	-14%

Carrying on:
SMILES	HSD17B inh
CC(C)N(CCNC(=O)C1CCC(=O)N1Cc1ccc(F)cc1)Cc1ccccc1 (centres undefined)	2%
CN(C)S(=O)(=O)c1ccc(C(=O)NCCOc2ccccc2)cc1	8%
O=S(=O)(NCCSc1ccccc1)c1cccs1	8%
Cc1c(NC(=O)CN2CCCc3ccccc32)c(=O)n(-c2ccccc2)n1C	0%
COc1ccc(-n2c(SCC(=O)N3CCCCC3)nc(O)cc2=O)cc1	4%
CSc1nnc([C@H](C)NC(=O)OC(C)(C)C)o1	-2%
Cc1ccccc1NC(=O)Cn1nnc(-c2ccc(N3CCOCC3)cc2)n1	?
CC(C)C(NC(=O)C1CCCCC1)C(=O)NC1CCN(Cc2ccccc2)CC1 (centres undefined)	21%
O=C(/C=C\c1ccc2c(c1)OCO2)c1ccc(F)cc1	-8%[11.4 µM]
Cc1cc(N=Cc2cc(Br)ccc2O)no1	-10%
O=C(O)Cn1nnn(-c2ccccc2)c1=S	-2%
COC(=O)[C@H](Cc1ccccc1)NC(=O)N1CCCCC1C (some centres undefined)	7%
O=C(N/C(=N\O)c1ccccc1)Nc1ccc(Cl)cc1	-8%
CCOC(=O)CSc1nnc(Cc2ccccc2)n1Cc1ccco1	-4%
COc1ccc(-c2noc(CN3C(=O)c4ccccc4C3=O)n2)cc1	5%
Cc1cc(NC(=O)NC2CCCN2S(=O)(=O)c2ccc(Cl)cc2)no1 (centres undefined)	7%
CC(=O)Nc1cccc(NC(=O)c2cc3ccccc3o2)c1	6%
CCCC(C(=O)N1CCOCC1)N1C(=O)C2C3C=CC(C3)C2C1=O (centres undefined)	4%
O=C(/C=C/C(=O)Oc1ccccc1C(=O)O)Oc1ccccc1C(=O)O	25µM*
COc1ccc2ccccc2c1C(O)c1nccn1C (centres undefined)	-8%
COc1ccccc1NC(=O)CN(c1ccccc1F)S(C)(=O)=O	-14%
c1ccc(Oc2cccc(OCCCn3cncn3)c2)cc1	4%
CCOC(=O)c1cnn(-c2ncnc3c2oc2ccccc23)c1N	2%
CCOC(=O)N1CCC(NC(=O)CCc2nc(-c3ccc(C)cc3)no2)CC1	2%
N=C(C[C@@H](O)COc1ccccc1-c1ccccc1)N1CCCCC1	14%

Continuation:
SMILES	HSD17B inh
CN(C)CCCc1c2ccccc2nc2ccc(Cl)cc12	-1%[11.4 µM]
CC(NS(=O)(=O)c1ccccc1)C(=O)Nc1nccs1 (centres undefined)	-25%
NCCc1nnc(SCc2c(F)cccc2Cl)o1	11%
Oc1ccccc1-c1nc(N2CCN(Cc3ccccc3)CC2)c2ccccc2n1	4%
CCOCCCN1C(=O)CN(C2CCCCCC2)C(=O)C1c1ccc(OC)cc1 (centres undefined)	1%
Cc1onc(-c2ccccc2Cl)c1C(=O)Nc1ccc(-c2cn3cccnc3n2)cc1	32µM*
COc1ccc(-c2csc3nc(C)n(-n4cccc4)c(=O)c23)cc1OC	7%
CC(C)CC(NC(=O)C(NC(=O)OC(C)(C)C)C(C)C)C(=O)N1CCCC1C(N)=O (centres undefined)	-4%
CCOC(=O)c1cnc2ccc(Br)cc2c1NCCO	-9%
CC1CN(S(=O)(=O)c2cccc(C(=O)OCc3cc(=O)oc4cc(O)ccc34)c2)CC(C)O1 (centres undefined)	i
CCOC(=O)c1[nH]cnc1C(=O)O	11%
COCCNC(=O)c1cn(C)c(=O)c2cc(OC)c(OC)cc12	5%
CCOc1ccc(NC(=O)CN2CCN(S(=O)(=O)c3ccc(Cl)cc3)CC2)cc1	0%
Cc1nc(N=Nc2cc(S(=O)(=O)O)c3cc([N+](=O)[O-])cc(S(=O)(=O)O)c3c2)c(COP(=O)(O)O)c(C=O)c1O	10µM*
CCN1C(=O)C(NC(C)=O)c2cc(OC)ccc21 (centres undefined)	-4%
Cc1cc2ccc(=O)oc2cc1OC[C@@H](O)C(C)(C)O	13µM*
Cn1c(C(=O)N2CCN(c3nc4ccccc4s3)CC2)cc2sccc21	-11%
CCCC(=O)Nc1ccc(NC(=O)c2ccco2)cn1	4%
CCOc1ccc(C2CC(c3ccc(OC)cc3)n3ncnc3N2)cc1 (centres undefined)	0%
COc1cccc(/C(O)=C2/C(=O)C(=O)N(CCN3CCOCC3)C2c2cccnc2)c1 (centres undefined)	-3%
COCC(=O)N1CCCc2ccccc21	14%
O=C(N1CCOCC1)N1CCN(S(=O)(=O)N2CCOCC2)CC1	21%
Cc1cccc(CC2CC(=O)N(c3ncccn3)C2=O)c1 (centres undefined)	-1%
CCn1c(=O)n(CCOC)c(=O)c2c3c(sc21)CCCC3	-2%
NCCC(=O)NCCc1cnc[nH]1	4%[25.6 µM]
O=C(Oc1ccc(Cl)cc1)N1CCCCC1	5%
